Source: PubChem BioAssay (National Center for Advancing Translational Sciences (NCATS))
EPAC1 ag val: human EPAC1 agonism, validation; O95398; EPAC1 Rap1b BODIPY-GDP exchange, fluorescence; Potency, µM, inactives show max response, positive = active, most hits filed as activators; 16,000 compounds, 1% hits; AID 1645883; active = well fitted activation curve with a large enough effect; inconclusive = small, poorly fitted or top-dose-only effect; inactive = no such curve, though single readings can be large or run the other way;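 note: nearly all actives have a fitted effect of over 70% in size; series mostly up to about 76 or 150 µM; scaled to a cAMP control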
Target sequence (O95398 whole entry, looked up): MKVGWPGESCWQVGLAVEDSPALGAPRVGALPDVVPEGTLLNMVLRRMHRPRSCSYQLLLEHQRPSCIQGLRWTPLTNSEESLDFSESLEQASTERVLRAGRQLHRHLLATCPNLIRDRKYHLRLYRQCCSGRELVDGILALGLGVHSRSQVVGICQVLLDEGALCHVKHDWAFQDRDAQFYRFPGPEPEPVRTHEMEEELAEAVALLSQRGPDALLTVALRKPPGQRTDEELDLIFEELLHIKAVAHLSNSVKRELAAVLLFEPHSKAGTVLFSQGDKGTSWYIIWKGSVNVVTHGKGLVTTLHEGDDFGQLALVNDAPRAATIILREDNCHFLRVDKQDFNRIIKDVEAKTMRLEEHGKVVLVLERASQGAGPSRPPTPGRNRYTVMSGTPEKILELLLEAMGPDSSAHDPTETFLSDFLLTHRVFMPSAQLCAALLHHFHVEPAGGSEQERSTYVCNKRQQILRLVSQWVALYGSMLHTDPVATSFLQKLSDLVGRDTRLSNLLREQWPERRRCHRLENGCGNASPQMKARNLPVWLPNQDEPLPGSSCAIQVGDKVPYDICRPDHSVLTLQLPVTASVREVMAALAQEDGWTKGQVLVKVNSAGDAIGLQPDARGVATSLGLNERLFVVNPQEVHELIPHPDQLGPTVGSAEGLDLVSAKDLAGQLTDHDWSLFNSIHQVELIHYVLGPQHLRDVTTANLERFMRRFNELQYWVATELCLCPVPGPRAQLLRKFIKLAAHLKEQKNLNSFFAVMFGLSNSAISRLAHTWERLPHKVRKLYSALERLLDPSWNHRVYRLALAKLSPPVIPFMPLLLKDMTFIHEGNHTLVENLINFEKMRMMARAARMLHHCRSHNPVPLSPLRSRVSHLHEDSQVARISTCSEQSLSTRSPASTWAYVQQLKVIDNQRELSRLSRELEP
* marks the source's active call; other numbers are inactive results; ? = inconclusive; & = joins results of further samples; [ ] = another dose, or the depositor's remark. % is set by controls: 0 for no effect and ±100 for the full control effect; potency is the fitted concentration of half-maximal effect.

SMILES	EPAC1 ag val
O=C(O)/C=C/C(O)c1ccc(Cl)cc1 (configuration not stated)	2%&6%
CO[C@H]1[C@H](NC(=O)c2ccco2)c2ccccc2C12CCN(Cc1cc(Cl)ccc1O)CC2	19%
CC[C@@H](C)[C@H]1O[C@]2(CC[C@@H]1C)C[C@@H]1C[C@H](C/C=C(/C)[C@H](O[C@@H]3C[C@H](OC)[C@H](O[C@@H]4C[C@H](OC)[C@@H](O)[C@H](C)O4)[C@H](C)O3)[C@@H](C)/C=C\C=C3CO[C@@H]4[C@H](O)C(C)=C[C@@H](C(=O)O1)[C@]34O)O2 (tested in a mixture with another compound)	-15%
Cc1cc(-c2ccc(N=Nc3c(S(=O)(=O)O)cc4cc(S(=O)(=O)O)cc(N)c4c3O)c(C)c2)ccc1N=Nc1c(S(=O)(=O)O)cc2cc(S(=O)(=O)O)cc(N)c2c1O	-31%[inhibitor]
COc1cccc(-c2cc3c(c(OC)c2)OCCN(Cc2cccn2-c2ccccn2)C3)c1	9%
Cc1nc2cc(NC(=O)[C@@H]3C[C@@H](Sc4ccccn4)CN3C3CCCCCC3)ccc2s1	9%
O=C(c1ccnc(-n2cnnn2)c1)N1CCOc2ccc(C(O)CCc3ccccc3)cc2C1 (configuration not stated)	16%
C=CCNC1=C2C[C@@H](C)C[C@H](OC)[C@H](O)[C@@H](C)/C=C(\C)[C@H](OC(N)=O)[C@@H](OC)/C=C\C=C(/C)C(=O)NC(=CC1=O)C2=O	-27%
C[C@@H]1CN(Cc2ccc3c(c2)CN(Cc2cn[nH]c2-c2ccccc2)CCO3)C[C@H](C)O1	-6%
C=CCN([C@@H](CC(C)C)C(=O)OC)S(=O)(=O)N(CC=C)[C@@H](CC(C)C)C(=O)OC	-68%[inhibitor]
C[C@@](N)(C(=O)O)c1ccc(S(=O)(=O)O)cc1	-18%
CNc1ncnc2c1ncn2[C@H]1C[C@H](OP(=O)(O)O)[C@@H](COP(=O)(O)O)O1	1%
O=C(Nc1ncc([N+](=O)[O-])s1)c1cccs1	-21%
Cc1cc(Nc2ccccc2C(=O)O)ccc1Cl	-171%[inhibitor]
C=C1C2CC[C@]3(CCC4[C@@]5(C)CCC[C@@]4(CN(CCO)C5)[C@@H]3C2)[C@@H]1O (some centres not stated)	-5%
Cc1ccc(C(=O)NCCc2nnc3n2CCN(C(=O)c2ccnc(Cl)c2)CC3)cc1	-9%
CCCCCCCCCNC(=O)[C@H](NC(=O)COc1ccccc1)[C@@H]1NC(C(=O)OC)C(C)(C)S1 (some centres not stated)	-84%[inhibitor]
Cn1cc(-c2nc3cnc(N4CCNCC4)nc3n(-c3ccccc3)c2=O)c2ccccc21	4%
N[C@@H](Cc1ccc(O)cc1)C(=O)O	-8%
CC(C)NC(=O)[C@@H]1C[C@@H](Sc2ccccn2)CN1C1CCN(C)CC1	3%
COc1ccccc1-c1nccc(NCc2cccc(C)c2)n1	-22%
CCN(CC)CCC(=O)N1c2ccccc2Sc2ccc(C(F)(F)F)cc21	?
CN(Cc1ccco1)c1nc(-c2ccc3c(c2)OCO3)nc2ccccc12	?
COc1ncc2nc(-c3cn(C)c4ccccc34)c(=O)n(CCC#N)c2n1	-21%
C[N+]1(C)CCC(OC(=O)C(c2ccccc2)c2ccccc2)CC1	14%&-5%&-5%
More records follow:
SMILES	EPAC1 ag val
OC1C2COC(O2)[C@H](O)C1O (some centres not stated)	-44%
COc1cc2c(c(OC)c1OC)-c1c(cc3c(c1OC)OCO3)C[C@@H](C)[C@](C)(O)C2	10%&3%
CCNc1ncc2nc(-c3cn(C)c4ccccc34)c(=O)n(Cc3cccs3)c2n1	7%
CC1(C)CCC(=O)N2CC[C@H]3C[C@H](OC(=O)Nc4ccccc4)C[C@@H]1[C@H]32	-1%
NCC(O)COc1cccc2ccccc12 (configuration not stated)	-3%
CC(=O)Nc1ccc(S[C@@H](CCN2CC[C@H](C(C)(C)C)CCC2=O)c2ccccc2)cc1	-36%[inhibitor]
Cc1cccc(CNC(=O)c2cnn(-c3nccc(-c4cc(C)sc4C)n3)c2C)n1	-10%
Cc1c(C(=O)NCc2ccco2)cnn1-c1ncc2c(n1)-c1ccccc1CC2	8%
CCCc1nc2cccnc2n1C1CCN(C(=O)CC2NC(=O)c3ccccc32)CC1 (configuration not stated)	10%
CNc1cc(-c2ccccc2CN(C)C)ncn1	10%
CCCCc1cc2ccccc2c(OCCN(C)C)n1	-25%
CCN1C(=O)NC(c2ccccc2)C1=O (configuration not stated)	-3%
O=c1c(-c2ccc(F)cc2)nc2cncnc2n1Cc1ccccc1	?
CC(C)N1[N]C(=C2C=c3cc(O)ccc3=N2)c2c(N)ncnc21	-11%
CC(C)(C(=O)O)c1ccc(C(O)CCCN2CCC(C(O)(c3ccccc3)c3ccccc3)CC2)cc1 (configuration not stated)	18%&-47%&-17%
O=C1C[C@@H]2c3c(cccc3CN1Cc1ccc(F)cc1)C[C@@H](O)[C@H]2O	15%
COc1ccccc1CN1CC2(CCN(C(=O)c3cnccn3)CC2)C1	-29%
O=C(c1csnn1)N1CCC2(CC1)CN(c1cccc(-c3ccccc3)c1)C2	100µM*
COc1cccc(Cn2c(=O)c(-c3cn(C)c4ccccc34)nc3cnc(OC)nc32)c1	-2%
COCc1c(C(=O)NC2CCCC2)cnn1-c1nccc(-c2cc(C)sc2C)n1	-11%
NC(=O)c1ncn([C@@H]2O[C@H](CO)[C@@H](O)[C@H]2O)c1O	-6%&12%
NCCCNCCSP(=O)(O)O	0%&-5%
CN(C)C(=O)c1ccc(-c2cncnc2-n2ccnc2)cc1	-43%[inhibitor]
O=c1c(-c2cc(F)cc(F)c2)nc2cncnc2n1C1CC1	-6%
CNCCC(Oc1ccccc1OC)c1ccccc1 (configuration not stated)	3%&-15%

The final two records of the section before come first, to join the parts:
SMILES	EPAC1 ag val
O=c1c(-c2cc(F)cc(F)c2)nc2cncnc2n1C1CC1	-6%
CNCCC(Oc1ccccc1OC)c1ccccc1 (configuration not stated)	3%&-15%
CCOc1ccc2nc(S(N)(=O)=O)sc2c1	-27%
CCN(c1nc(N)c(C(=O)N=C(N)N)nc1Cl)C(C)C	-5%
CC1=C[C@H](O)CC(C)(C)[C@H]1/C=C/C(C)=C/C=C/C(C)=C/C=C/C=C(C)/C=C/C=C(C)/C=C/C1=C(C)C[C@@H](O)CC1(C)C	-9%
COc1cccc(Cn2c(=O)c(-c3ccc(F)cc3)nc3cnc(N4CCNCC4)nc32)c1	5%
COc1ccc(Oc2ncc3ncc(=O)n(-c4ccc(OC)cc4)c3n2)cc1	-24%
CN1CCN(c2ncc3nc(-c4cn(C)c5ccccc45)c(=O)n(-c4ccccc4)c3n2)CC1	-11%
CCOC(=O)c1c(C)n(C)c2ccc(O)cc12	-20%
COc1ccc(C(=O)N2CCC3(CCCN(c4ccccn4)C3)CC2)cc1	20%
Nc1cc(C(Cl)=C(Cl)Cl)c(S(N)(=O)=O)cc1S(N)(=O)=O	-2%&12%&11%
Cc1cccc(C)c1Nc1ncccc1C(=O)O	-10%
CC(C)NC(=O)N1CCC2(CC1)CCN(S(=O)(=O)c1ccccc1)CC2	-61%[inhibitor]
COc1ccccc1-c1ccc2ncnc(N(C)C)c2c1	-13%
Oc1cc(O)c2c(c1)OC(c1cc(O)c(O)c(O)c1)C(O)C2 (configuration not stated)	-20%
CC(=O)OCC1OC(n2c(Br)nc3c(=O)[nH]c(N)nc32)C(OC(C)=O)C1OC(C)=O (configuration not stated)	?
COCCNc1nc(-c2ccccc2OC)nc2ccccc12	3%
c1ccc(-c2ccc(C(c3ccccc3)n3ccnc3)cc2)cc1 (configuration not stated)	?
O=C(NOC[C@H](O)CO)c1ccc(F)c(F)c1Nc1ccc(I)cc1F	-3%
O=C(c1ccco1)N1CCC2(CCCN(Cc3ccccc3)C2)CC1	20%
NC(=O)[C@@H]1C[C@]2(NC(=O)NC2=O)c2cc(F)ccc2O1	-22%
COCCCOc1ccnc(CS(=O)c2nc3ccccc3[nH]2)c1C (configuration not stated)	-24%
COc1ccccc1CN1CC[C@@]2(CCCN(C(=O)c3c(C)noc3C)C2)C1	0%
N[C@@H](C(=O)N[C@@H]1C(=O)N2C(C(=O)O)=C(Cl)CS[C@H]12)c1ccccc1	6%
FC(F)(F)c1cccc(-c2cn[nH]c2C2CCCN(Cc3cccn3-c3ccccn3)C2)c1 (configuration not stated)	0%
COc1ccccc1CCn1c(=O)c(C)nc2cncnc21	-47%[inhibitor]
COCCn1c(=O)c(-c2cn(C)c3ccccc23)nc2cnc(Oc3ccc(OC)cc3)nc21	7%

5 neighbouring compounds out of the list so far:
SMILES	EPAC1 ag val
CCOc1ccc2nc(S(N)(=O)=O)sc2c1	-27%
CCN(c1nc(N)c(C(=O)N=C(N)N)nc1Cl)C(C)C	-5%
CC1=C[C@H](O)CC(C)(C)[C@H]1/C=C/C(C)=C/C=C/C(C)=C/C=C/C=C(C)/C=C/C=C(C)/C=C/C1=C(C)C[C@@H](O)CC1(C)C	-9%
COc1cccc(Cn2c(=O)c(-c3ccc(F)cc3)nc3cnc(N4CCNCC4)nc32)c1	5%
COc1ccc(Oc2ncc3ncc(=O)n(-c4ccc(OC)cc4)c3n2)cc1	-24%

Molecules shown so far with a COOH group (7):
SMILES	EPAC1 ag val
O=C(O)/C=C/C(O)c1ccc(Cl)cc1 (configuration not stated)	2%&6%
C[C@@](N)(C(=O)O)c1ccc(S(=O)(=O)O)cc1	-18%
Cc1cc(Nc2ccccc2C(=O)O)ccc1Cl	-171%[inhibitor]
N[C@@H](Cc1ccc(O)cc1)C(=O)O	-8%
CC(C)(C(=O)O)c1ccc(C(O)CCCN2CCC(C(O)(c3ccccc3)c3ccccc3)CC2)cc1 (configuration not stated)	18%&-47%&-17%
Cc1cccc(C)c1Nc1ncccc1C(=O)O	-10%
N[C@@H](C(=O)N[C@@H]1C(=O)N2C(C(=O)O)=C(Cl)CS[C@H]12)c1ccccc1	6%

The list continues.
SMILES	EPAC1 ag val
OC(c1ccc2c(c1)CN(Cc1ccc3nsnc3c1)CCO2)C1CCCCC1 (configuration not stated)	-17%
CC(C)(CNC(=O)c1cnn(-c2ncc3c(n2)-c2ccccc2CC3)c1C1CC1)N1CCOCC1	-11%
COc1ccc(C(=O)N2CCC3(CC2)CN(C(=O)NC(C)C)C3)cc1	13%
CN(C)c1ccc(/C=C/c2ccnc3ccccc23)cc1[N+](=O)[O-]	?
O=C1NC(=O)C(c2ccccc2[N+](=O)[O-])=C1Nc1ccc(O)c(Cl)c1	13%&-16%&-15%
CSc1nc(C(=O)NCc2nc(-c3cccc(NC(=O)c4ccc(C)s4)c3)oc2C)cs1	-4%
COc1cccc(-c2ccc3ncnc(NCc4cnc(C)cn4)c3c2)c1	-26%
CC(=O)N1CCC[C@H]1C(=O)NCC1Cc2cc(-c3cccc(OC(F)(F)F)c3)ccc2O1 (some centres not stated)	4%
CCCN1CCC(=O)N(CCSc2ccccc2)CC1	-7%
[O-][N+](=Nc1ccccc1)c1ccccc1	?
O=C(NCCc1ccccc1)[C@@H]1CC=C[C@@H]2CCN(C3CCCCC3)C(=O)[C@@H]21	-9%
CN(CCO)C(=O)c1cn(C2CCN(Cc3ccc4ccccc4c3)CC2)nn1	-7%
COc1ccc2cnoc(=O)c2c1OC	-4%
c1ccc(-c2cn(CC3CCCCC3)nn2)cc1	-37%[inhibitor]
CC(C)N1CCN(c2ccc(OC[C@H]3CO[C@](Cn4cncn4)(c4ccc(Cl)cc4Cl)O3)cc2)CC1	-3%
COC(=O)[C@@H]1C[C@H](NC(=O)c2cc(C(F)(F)F)ccc2Cl)CN1Cc1cccc(O)c1	3%
N[C@H](CC(=O)O)C(=O)O	-8%&-16%&3%
CCN(CC)CCNC(=O)COc1ccc(Cl)cc1	13%
COc1cc(OC)c2c(=O)c(-c3ccc4c(c3)OCO4)coc2c1	-3%
COc1cc(-c2cc(C)c3c(OC)ccc(OC)c3n2)cc2c1OCCN(C(=O)C(C)c1n[nH]c(=O)c3ccccc13)C2 (configuration not stated)	-14%
CCCCC[C@H]1CN(Cc2ccc(OC)cc2)C(=O)[C@@H]1CC(=O)NCc1ccccc1	-85%[inhibitor]
N#Cc1cccc(-c2cncnc2NCc2ccccc2)c1	-16%
CC(=O)O[C@H]1C[C@@H]2CC[C@@H]3[C@H](CC[C@@]4(C)[C@H]3C[C@H]([N+]3(C)CCCCC3)[C@@H]4OC(C)=O)[C@@]2(C)C[C@@H]1N1CCCCC1	-13%
CCN(CC)CCNC(=O)c1cnn(-c2nccc(-c3cc4ccccc4o3)n2)c1C	-5%
Cc1ccccc1C1(CC(=O)N2CCN(C)CC2)CC(=O)N(Cc2ccncc2)C1=O (configuration not stated)	-16%
Next part:
SMILES	EPAC1 ag val
CCCCCCCCCCCCC/C=C\[C@@H](O)[C@H](CO)NC(C)=O	-69%[inhibitor]
O=c1nc2ccccc2c2n1CC(CN1CCN(c3ccccc3)CC1)N2 (configuration not stated)	-14%
COc1cccc(Nc2ncc3nc(C)c(=O)n(CCc4ccccc4)c3n2)c1	-67%[inhibitor]
Cc1nc2cnc(Oc3ccccc3)nc2n(CCc2ccccc2)c1=O	-60%[inhibitor]
c1ccc(-c2onc(-c3ccco3)c2-c2ccc3[nH]ccc3c2)cc1	112µM*
O=C(O)CCc1nc(-c2ccccc2)c(-c2ccccc2)o1	1%&-19%&-9%
Cn1c(=O)c2c(ncn2C)n(C)c1=O	?
O=C(C1CCOC1)N1CCOc2ccc(CN3CCC(Oc4cccnc4)CC3)cc2C1 (configuration not stated)	-15%
CCCn1c(=O)[nH]c2nc(-c3ccc(S(=O)(=O)O)cc3)[nH]c2c1=O	-5%
C[C@@H](CC#N)CN1CC[C@H](C(C)(C)C)CCC1=O	-14%
CN(C)C(=O)c1ccc(-c2nc(NCc3cccnc3)c3ccccc3n2)cc1	1%
CCCc1c(OCCCCc2nn[nH]n2)ccc(C(C)=O)c1O	10%&-1%&-1%
CCNc1ncc2nc(CCc3ccccc3)c(=O)n(C3CC3)c2n1	-35%[inhibitor]

A portion of the library; the hit share may differ from the screen's.
